Calb biofilm kill: mixtures killing C. albicans biofilm; AID 1242; C. albicans biofilm persisters + clotrimazole, fluorescence viability; primary screen in compound mixtures of four per well; actives 0.02% (n = 120,000); inhibition, % at 7.6 µM;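 active = inhibition above 30.3% in the primary screen of four-compound pools, then above 30% when the compound was retested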;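 also: compounds exposed to preformed 24 h biofilms for 48 h; the number belongs to the whole pool; some results filed as inactive read as strong as hits; inactives centre near 12; 0% = biofilm with clotrimazole alone and 100% = kill control; retested singly at about 60 µM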
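Incubation: 24 h biofilm formation, then 48 h compound exposure, 37 °C | Material: C. albicans biofilms | Buffer or medium: RPMI/MOPS medium, pH 7.0 | Measured by: 2-h Alamar Blue fluorescence, 535/590 nm excitation/emission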
An asterisk follows results filed as active. This is a subset. The share of hits here may be higher or lower than overall.

Start of the listing, in advance (3 entries):
SMILES | Calb biofilm kill
CSc1ncccc1C(=O)OCc1ccccc1Cl | 11.8
O=C(O)c1ccc(/C=N/Nc2nc(N3CCCCC3)nc(N3CCCCC3)n2)cc1 | 25.5
COc1ccc(NC(=S)Nc2ccc(OC)cc2OC)c(OC)c1 | 12.3

The whole of this part (from the top)
SMILES | Calb biofilm kill
CSc1ncccc1C(=O)OCc1ccccc1Cl | 11.8
O=C(O)c1ccc(/C=N/Nc2nc(N3CCCCC3)nc(N3CCCCC3)n2)cc1 | 25.5
COc1ccc(NC(=S)Nc2ccc(OC)cc2OC)c(OC)c1 | 12.3
O=[N+]([O-])c1cccc(-c2nc(NCc3ccccc3)c3ccccc3n2)c1 | 11.9
CCOC(=O)Cc1nc(-c2ccc(Cl)cc2)n[nH]1 | 13.5
O=C(CSc1nnc(NC2CCCCC2)s1)NCc1ccco1 | -6.5
Cc1[nH]cnc1CSCc1ccc(F)cc1 | 14.1
N#CCn1cc(/C=N/NC(=O)c2cc3c(ccc4ccccc43)o2)c2ccccc21 | 2.9
CCOC1OC(=O)C(Cl)=C1Nc1ccccc1C (stereo not given) | 13.5
Cc1cc(C)cc(N(CC(=O)Nc2ccccc2)C2=NC3CS(=O)(=O)CC3S2)c1 (stereo not given) | 18.7
CCC1(Cc2ccccc2)NC(=O)c2ccccc2O1 (stereo not given) | -1.6
COc1cc(S(=O)(=O)N(C)C2CCCCC2)c(C)cc1C | 14.6
Cn1ncc(Br)c1C(=O)N1CCOCC1 | 10.5
NNC(=O)CCc1nc2ccccc2[nH]1 | 10.4
COc1cccc(-c2nn(-c3ccccc3)cc2CN(C)C(C)c2ccon2)c1 (stereo not given) | 22.1
COc1ccc2nc3cccc(OC)c3nc2c1 | 4.2
O=C(COC(=O)c1ccc(O)cc1)NCCC1=CCCCC1 | 4.5
NS(=O)(=O)c1ccc(CCNC(=O)CSc2nc3ccccc3c(=O)n2CCC(=O)N2CCCCC2)cc1 | 3.6
CCC(=O)c1ccccc1OCC(=O)Nc1c(C)cccc1C | 9.8
COc1ccc(C)cc1NC(=O)NCc1ccccc1F | 19.6
COc1ccc(NC(=O)c2nc[nH]c2C(=O)N[C@@H](C)c2ccccc2)cc1 | 8.3
CN(Cc1ccccc1)c1ccc(C(CC(N)=O)NC(=O)Cc2ccc(Br)cc2)cc1[N+](=O)[O-] (stereo not given) | 17.2
O=C(O)c1cc([N+](=O)[O-])c(NCc2cccnc2)c([N+](=O)[O-])c1 | 7.1
O=C(CNC(=O)c1cccs1)N/N=C/c1ccco1 | -4.4
CC(C)(C)CN1C(=O)C(=O)NC[C@@H]1Cc1ccc(O)cc1 | 16.3
CC(C)NC(=O)Cn1c(=O)cnc2ccccc21 | 5.7
COCCNC(=O)C(c1ccc(C)o1)N(C(=O)C(=O)NC1CCCCC1)c1ccc(F)cc1 (stereo not given) | 13.7
COCCn1c(SCC(=O)Nc2nnc(C)s2)nnc1-c1ccco1 | 18.7
Cc1cccc(CCN(CC(=O)NC(C)(C)C)C(=O)c2csnn2)c1 | 19.6
COc1ccccc1C(=O)COC(=O)CNS(=O)(=O)c1ccc(C)cc1 | 12.4
FC(F)(F)c1ccccc1NC(=S)N1CCc2ccccc2C1 | 2.0
CCCCOc1ccc(S(=O)(=O)Nc2ccc(NC(C)=O)cc2)cc1 | -6.0
O=C(NCCc1ccccn1)C1CCN(S(=O)(=O)c2ccc3ccccc3c2)CC1 | 10.7
CSc1ncccc1C(=O)OCC(=O)c1ccccc1 | 10.8
Cc1ccc(NCCC(=O)c2ccccc2)cc1Cl | -9.9
Cc1cccc(N=C2NC(=O)/C(=C/c3cccn3C)S2)c1C | 27.0

Some of these compounds in order of heavy-atom count, rising.
SMILES | Calb biofilm kill
CC(C)(C)CN1C(=O)C(=O)NC[C@@H]1Cc1ccc(O)cc1 | 16.3
FC(F)(F)c1ccccc1NC(=S)N1CCc2ccccc2C1 | 2.0
Cc1cccc(CCN(CC(=O)NC(C)(C)C)C(=O)c2csnn2)c1 | 19.6
COc1ccccc1C(=O)COC(=O)CNS(=O)(=O)c1ccc(C)cc1 | 12.4

Next records.
SMILES | Calb biofilm kill
CCOc1c(Br)cc(CNc2ccc(N3CCOCC3)cc2)cc1OC | 16.8
Cc1cc(C(=O)Cn2nc(C(=O)O)c3ccccc3c2=O)c(C)n1-c1cccc(C(F)(F)F)c1 | 13.7
O=C(Nn1cc(C(=O)Nc2ccc(F)cc2F)c2ccccc2c1=O)c1cnccn1 | 5.1
Cc1cc(C)cc(N=C2NC(=O)/C(=C/c3cccs3)S2)c1 | 14.3
O=[N+]([O-])c1cc(C(F)(F)F)cc([N+](=O)[O-])c1N1CCCNCC1 | 15.0
O=C(Nc1nnc(-c2ccc(Cl)cc2)o1)c1cccc(N2C(=O)CCC2=O)c1 | 7.6
CCN(C(=S)NCc1ccccc1)c1ccccc1 | 1.7
Cc1ccc(S(=O)(=O)NCC(=O)N(c2ccccc2)C(C(=O)NCc2ccccc2)c2ccco2)cc1 (stereo not given) | 7.0
COc1ccc(CNC(=O)COC(=O)C2CCN(S(=O)(=O)c3ccccc3C(F)(F)F)CC2)cc1 | 15.0
COc1ccc(S(=O)(=O)N2CCOCC2)cc1NC(=O)CSc1ncnc2ccccc12 | 10.3
Cc1cc(C)cc(NC(=S)NC2CC3CCCC(C2)N3C2CC2)c1 (stereo not given) | 7.1
CCN(Cc1ccccc1)C(=O)COC(=O)CNC(=O)c1ccc(C)s1 | 4.7
O=C(NCc1cccnc1)C(=O)N/N=C/c1ccc([N+](=O)[O-])cc1 | 8.3
COc1ccc(NC(=S)N2CCc3ccccc3C2)cc1 | 22.9
O=C(C1=NNC2C(=O)N(c3ccccc3)C(=O)C12)c1nc(Cl)ccc1Cl (stereo not given) | 15.9
CCN(CC)S(=O)(=O)c1ccc(N2CCOCC2)c(NC(=O)COc2ccc(Cl)cc2)c1 | 16.0
Cc1cc(/C=C2/C(=N)N3C(=NC2=O)SN=C3S(C)(=O)=O)c(C)n1-c1ccc(F)cc1 | 7.6
Cc1ccc(S(=O)(=O)NN2C(=O)/C(=C/c3cccs3)SC2=S)cc1 | 19.4
COC(=O)c1ccc(C(=O)OC)c(NC(=O)CN(C)Cc2cccc(Cl)c2Cl)c1 | 8.4
CNC(=S)Nc1cc(C)ccc1OC(F)F | 2.5
Cc1ccccc1OCC(=O)OCC(=O)Nc1ccc(S(N)(=O)=O)cc1 | 17.2
CCN(CC)CC(O)CN1C(=O)NC(C)(C)C1=O (stereo not given) | -0.7
Cc1ccc(-c2nnc(N3CCC(C)CC3)c3ccccc23)cc1C | 26.2
C/C(=N\NC(=O)CNC(=O)C(c1ccccc1)c1ccccc1)c1ccc(C)cc1 | 13.4

Part of the list above, with each value named.
> Cc1ccc(S(=O)(=O)NN2C(=O)/C(=C/c3cccs3)SC2=S)cc1
  Calb biofilm kill: 19.4
> COC(=O)c1ccc(C(=O)OC)c(NC(=O)CN(C)Cc2cccc(Cl)c2Cl)c1
  Calb biofilm kill: 8.4
> CNC(=S)Nc1cc(C)ccc1OC(F)F
  Calb biofilm kill: 2.5

Other compounds follow:
SMILES | Calb biofilm kill
O=C(CCCSc1nc2ccccc2c(=O)[nH]1)c1ccc(F)cc1 | 2.6
O=C(N/N=C/c1ccc2c(c1)OCO2)c1cc(-c2ccncc2)nc2ccccc12 | 7.4
O=C(CSc1nnc(-c2ccccc2)n1-c1ccc(Cl)cc1)N/N=C/c1ccco1 | 19.7
O=C(Nc1cccc(Br)c1)c1ccc(OC2CSC2)cc1 | 10.7
CCc1nnc2n1N=C(c1ccc(OC)cc1)CS2 | -2.3
Cc1ccc(-n2c(O)c(C=Nc3cc(C)on3)c3ccccc3c2=O)c(C)c1 | 5.7
O=C(NNC(=S)NC1CCCCC1)c1ccc(Cl)s1 | 18.1
O=C1C2C(C(=O)N1/N=C/c1cc([N+](=O)[O-])c(O)cc1O)C1C=CC2C12CC2 (stereo not given) | 18.5
Cc1n[nH]c(=S)n(NC(=O)CC(=O)Nn2c(=S)[nH]nc(C)c2=O)c1=O | 17.0
O=C(OCCCN=C1NS(=O)(=O)c2ccccc21)c1ccc([N+](=O)[O-])cc1 | 11.4
CS(=O)(=O)CCC(C(=O)OCC(=O)c1ccc(Cl)cc1)N1C(=O)c2ccccc2C1=O (stereo not given) | 14.4
[N-]=[N+]=CC(=O)C(c1ccccc1)(c1ccccc1)c1ccccc1 | 1.2
C(=N\N=C\c1cccnc1)/c1cccnc1 | 16.1
Cc1ccc(NC(=O)c2nc[nH]c2C(=O)N[C@@H](C)C(=O)OC(C)(C)C)cc1 | 11.8
CCc1ccc(/C=N/NC(=O)c2cc(C)on2)s1 | 9.7
CN1c2ccccc2C(=O)C(=C2SCCCS2)S1(=O)=O | 18.0
Cc1ccccc1N/C(SCc1cccc(Br)c1)=C(/C#N)C(N)=O | 14.2
O=[N+]([O-])c1ccccc1/C=N/Nc1nnc(-c2ccccc2)c(-c2ccccc2)n1 | 8.1
Cc1nc2cc(S(=O)(=O)N(C)C)ccc2n1-c1ccccc1 | 13.0
Cc1ccc(S(=O)(=O)/N=C(\Nc2cc(C)on2)c2ccc(Cl)cc2)cc1 | 8.8
CCC1=NN2C(=N)/C(=C/c3c(C)nn(-c4ccccc4)c3Cl)C(=O)N=C2S1 | 12.0
Cc1cccc(C)c1NC(=O)C(Cl)=C(Cl)Cl | 7.2
CCOc1ccc(/C=N/OCC(=O)NCc2ccc3c(c2)OCO3)cc1OC | 16.1
O=C(Nc1ccc(CN2CCOCC2)cc1)c1cccc(-c2cc3ccccc3oc2=O)c1 | 17.9
Cc1[nH]n(C)c(=O)c1C(=O)c1c(-c2ccccc2Cl)noc1C | 8.6
CCn1ncc(Br)c1C(=O)Nc1ccccc1OC | 17.9
Cc1cccc(N2CCN(C(=O)c3cc(S(=O)(=O)N(C)C)ccc3N3CCCC3)CC2)c1C | -9.4
Cc1ccc(C(=O)N2CCN(S(=O)(=O)c3ccccc3)CC2)cc1 | 7.9
COc1cccc(C2CC(C(F)(F)F)n3nc(C(=O)Nc4c(C)n(C)n(-c5ccccc5)c4=O)cc3N2)c1 (stereo not given) | -3.0
Cc1ccnc(SCc2cc(=O)c(OC(=O)c3ccccc3)co2)n1 | 8.4
Cc1ccc(CNC(=O)COC(=O)c2ccc(Cl)c(N)c2)cc1 | 16.4
COC(=O)c1sc(C(C)(C)C)cc1CS(=O)(=O)c1ccccn1 | 3.0
Cc1nc2ccccc2n1C(=O)N1CCOCC1 | 19.5
NC(=O)c1ccc[n+](CC(=O)c2ccc(Br)cc2)c1 | 16.9
CCOC(=O)COc1cc(O)c2c(=O)cc(-c3ccccc3)oc2c1 | 10.4
O=C(Nc1ccccc1)c1ccc(-c2ccccc2C(F)(F)F)o1 | 15.7
C[C@]1(C(=O)O)C=C[C@@H](Cc2ccccc2)N1C(=O)c1ccccc1 | 9.1
Cc1nnsc1C(=O)N/N=C/c1ccccc1Cl | 14.0
O=C1SCCc2c1n(Cc1ccccc1)c1ccccc21 | 3.9
O=C(c1cccs1)N1CCc2c([nH]c3ccccc23)C1c1ccccn1 (stereo not given) | 11.3
NC(=O)C1CCN(c2ncc(C(F)(F)F)cc2Cl)CC1 | 6.0
CCCC(=O)OCC(=O)Nc1cc(Cl)ccc1[N+](=O)[O-] | 12.9
COc1ccc(NC(=O)CN2C(=O)c3ccccc3Sc3ccc(C(=O)N4CCOCC4)cc32)c(OC)c1 | 13.8
Cc1ccn(-c2cccc(-n3ccc(C)n3)n2)n1 | 13.7
O=C(CSc1nnc2n1CCCCC2)Nc1ccc(N2CCOCC2)cc1 | 20.3
CN(C(=O)COC(=O)c1c2c(nc3ccccc13)/C(=C/c1cccc([N+](=O)[O-])c1)CCC2)C1CCS(=O)(=O)C1 (stereo not given) | 3.8
COc1ccc(C(=O)Nc2cc(C)on2)cc1S(=O)(=O)N1CC(c2ccccc2)CC1=O (stereo not given) | 9.1
Cc1ccc(N2C(=O)NC(NC(=O)C3CC3)(C(F)(F)F)C2=O)cc1 (stereo not given) | 10.0
Cc1csc(NC(=O)C2CCN(S(=O)(=O)c3cccs3)CC2)n1 | 10.5
O=S(=O)(NCC1CCCO1)c1cnc(Cl)c(Br)c1 (stereo not given) | 9.2
O=C(NCc1ccccc1Cl)C1CCC(CNc2c(N3CCCCC3)c(=O)c2=O)CC1 (stereo not given) | 19.2
CCN(CC)C(=O)C(=O)Nc1ccc(OC)c(Cl)c1 | 12.8
Cc1c(Cl)cccc1NC(=O)CCC(=O)NNC(=O)c1ccccc1 | 1.2
Cc1cccc(N2C(=O)CS/C2=N\NC(=O)c2ccc(Br)cc2)c1C | 7.9
COc1ccc(C(=O)NCCCCCC(=O)N/N=C/c2ccco2)cc1OC | 10.3
O=C1C2C3CC(C2C(=O)N1c1cccc(Cl)c1)[C@H](O)C3O (stereo not given in full) | 24.4
CCOC(=O)c1cnc(-n2nc(C)cc2C)nc1NNc1cc(-c2ccccc2)nc(C)n1 | 19.3
O=[N+]([O-])c1cccc2c(N3CCOCC3)ccnc12 | 11.0
CCS(=O)(=O)N1CCN(C(=O)c2ccccc2[N+](=O)[O-])CC1 | 3.7
CCOc1ccc2nc(NC(=O)/C=C/c3ccc4c(c3)OCO4)sc2c1 | 9.7

The listing continues:
SMILES | Calb biofilm kill
CSc1nc(O)c(Nc2cccc(Cl)c2)c(=O)[nH]1 | 23.2
Cn1c(=O)c2c(ncn2CC(=O)Nc2nc(-c3ccccc3Cl)cs2)n(C)c1=O | 9.0
CCOC(=O)CNC(=O)C12CC3CC(CC(C3)C1)C2 | 13.4
Cc1ccc(S(=O)(=O)Nc2csc(C)c2C(=O)O)cc1 | 12.5
COc1cccc(C(=O)C2=NN(C(C)=O)CC2c2ccco2)c1 (stereo not given) | -4.7
O=C(CN1C(=O)c2ccccc2C1=O)NCCc1c[nH]c2ccc(Cl)cc12 | 17.1
CCN(CC)S(=O)(=O)c1ccc(N2CCCC2)c(NC(=O)c2ccc(OC)cc2OC)c1 | 7.0
CN(C)S(=O)(=O)Nc1cc(Cl)cc(Cl)c1 | 14.9
O=C1/C(=C\c2ccco2)SC(=S)N1c1ccccc1 | 14.2
CC1(C)Cc2nc3sc4c(NCCO)ncnc4c3cc2CS1 | 10.7
